Compound activity as filed in PubChem.
FGF22 binding: binders of human FGF22 protein, primary screen, FGF22 synaptogenesis inhibitor project, biophysical, thermal shift, single point; 340,000 compounds, 1.5% hits; Fibroblast growth factor 22 (Homo sapiens), Q9HCT0; calls only at 9.99 µM; recombinant FGF22 thermal shift, SYPRO orange fluorescence; percent of sucrose octasulfate shift, DMSO zero;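 active = melting point raised past a set limit in the mean and every replicate; three in four hits are not shown here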
Target sequence (Q9HCT0 whole entry, looked up): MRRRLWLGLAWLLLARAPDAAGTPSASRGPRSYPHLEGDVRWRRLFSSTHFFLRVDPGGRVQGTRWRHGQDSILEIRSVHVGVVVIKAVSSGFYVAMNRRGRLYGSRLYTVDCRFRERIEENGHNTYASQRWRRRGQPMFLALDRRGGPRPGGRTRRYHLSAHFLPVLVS
Ecoli rRNA inh: reduced GFP signal of wild-type E. coli, primary screen, bacterial rRNA inhibitor project, GFP/RFP fluorescence, OD600, single point; E. coli WT GFP vs humanized-ribosome RFP mutants, 24 h; stronger effect = lower value; DMSO median 0, no signal -100; GFP signal change (wild-type ribosome), % (test concentration not listed); 350,000 compounds, 1.6% hits; AID 720706, 2013;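 active = significant combined selectivity score with lowered wild-type GFP, culture density cut under 30%, mutant RFP and density less affected; inactive = any of these conditions unmet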; also: one replicate is shown; some compounds called inactive have numbers as strong as hits
Ecoli rRNA inh OD600: further read-out of Ecoli rRNA inh, marked with its call; OD600 change, %; measured here: OD600 growth;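 optical density of the mix in the first replicate; 0 = DMSO median and -100 = no signal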
Ecoli rRNA inh RFP: recorded beside Ecoli rRNA inh, whose call it bears; RFP signal change, %; measured here: RFP humanized mutant strains;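 first replicate; 0 = DMSO median and -100 = no signal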
Active calls of the source: *; i = inactive; & = joins results of further samples. This is a subset; count on the stated rates, not on these rows.

smiles	FGF22 binding	Ecoli rRNA inh	Ecoli rRNA inh OD600	Ecoli rRNA inh RFP
O=C(C[C@@H]1C=C[C@H](NC(=O)Nc2ccccc2)[C@@H](CO)O1)NCc1ccccn1	i	6	1	0.1
C[C@H]1CN([C@@H](C)CO)C(=O)c2cc(NC(=O)Nc3ccc(C(F)(F)F)cc3)ccc2O[C@H]1CN(C)Cc1ccc(C(=O)O)cc1	i	-2	-10	-3.0
COc1ccccc1-c1ccc2n(c1=O)C[C@@H]1[C@@H](CO)[C@H](C(=O)NCc3ccccc3F)N[C@H]21	i	0	6	-1.3
CCCN(C[C@H]1[C@@H](c2ccccc2)[C@H](CO)N1C(C)=O)C(=O)NC(C)C	i	4	18	-1.8
COc1ccc(C2CC(=O)C(c3ccccc3)=CN2Cc2ccccc2)cc1 (stereo not drawn)	i	-19	-15	2.4
O=C(C[C@H]1C=C[C@H](NC(=O)Nc2ccccc2F)[C@H](CO)O1)NCc1ccc(F)cc1	i	1	8	-3.0
C[C@H]1CN([C@@H](C)CO)C(=O)Cc2cc(NC(=O)NC3CCCCC3)ccc2O[C@H]1CN(C)C(=O)Nc1ccc2c(c1)OCO2	i	4	6	-1.5
CCCN(C)C[C@H]1Oc2cc(C#CCC3CCCC3)ccc2S(=O)(=O)N([C@@H](C)CO)C[C@H]1C	i	-3	-24	15
C[C@H]1CN([C@@H](C)CO)C(=O)c2cccc(NC(=O)c3nc4ccccc4s3)c2O[C@H]1CN(C)Cc1ccc(Oc2ccccc2)cc1	i	1	-4	-2.6
C[C@@H]1CN([C@@H](C)CO)C(=O)c2cc(C#Cc3ccccc3F)cnc2O[C@H]1CN(C)C(=O)C1CC1	i	-2	-3	-0.9
C(=C\c1ccc(C2[C@@H]3CN(Cc4ccc5c(c4)OCO5)C[C@H]2N3)cc1)/c1ccccc1 (stereo partly drawn)	i	-56&-58	-77&-78	-18&-16
CC(C)NC(=O)N(C)C[C@H]1Oc2ccc(NC(=O)Nc3ccccc3)cc2CC(=O)N([C@@H](C)CO)C[C@H]1C	i	4	8	0.5

Laid out differently: 2 of the compounds above.
Each structure is followed by: FGF22 binding	Ecoli rRNA inh	Ecoli rRNA inh OD600	Ecoli rRNA inh RFP
- C[C@H]1CN([C@@H](C)CO)C(=O)c2cccc(NC(=O)c3nc4ccccc4s3)c2O[C@H]1CN(C)Cc1ccc(Oc2ccccc2)cc1
    i	1	-4	-2.6
- C[C@@H]1CN([C@@H](C)CO)C(=O)c2cc(C#Cc3ccccc3F)cnc2O[C@H]1CN(C)C(=O)C1CC1
    i	-2	-3	-0.9

Following part
smiles	FGF22 binding	Ecoli rRNA inh	Ecoli rRNA inh OD600	Ecoli rRNA inh RFP
COc1cccc(CN2[C@@H]3CNC[C@H]2C3c2ccc(-c3ccc(C#N)cc3)cc2)c1 (stereo partly drawn)	i	0	-6	-6.2
CO[C@@H](CN(C)C(=O)C1CCOCC1)[C@H](C)CN(C(=O)Nc1ccc(F)cc1)[C@H](C)CO	i	2	-3	-0.9
NCC[C@H]1CC[C@@H](NC(=O)C2CCC2)[C@@H](CO)O1	i	1	-1	-2.4
O=C(c1ccccn1)N1C[C@H]2[C@@H](c3ccccc31)[C@H](CO)N2C(=O)Nc1ccccc1Cl	i	2	0	-0.1
C[C@@H]1CN([C@H](C)CO)C(=O)Cc2cc(NC(=O)NC3CCCCC3)ccc2O[C@@H]1CN(C)C(=O)Nc1ccc(C(F)(F)F)cc1	i	-2	-7	2.5
CO[C@@H]1CN(C)C(=O)c2ccc(NC(=O)c3ccccc3F)cc2OC[C@H](C)N(C(C)=O)C[C@@H]1C	i	4	4	-1.3
CCN1[C@@H]2Cn3c(ccc(-c4ccncc4)c3=O)[C@H]1[C@@H](C(=O)Nc1ccccc1)[C@@H]2CO	i	0	-3	-1.7
C[C@H](NC(=O)N(C)C[C@@H]1OCc2ccccc2-c2c(n(C)c3ccccc23)C(=O)N([C@@H](C)CO)C[C@H]1C)c1ccccc1	i	-3	-2	2.4
Cc1noc(C)c1S(=O)(=O)N(C)C[C@@H]1OCCCC[C@@H](C)Oc2ccc(NC(=O)c3ccccc3)cc2C(=O)N([C@H](C)CO)C[C@@H]1C	i	0	-8	-2.1
C[C@@H]1CN([C@@H](C)CO)C(=O)c2c(c3ccccc3n2C)-c2ccccc2CO[C@@H]1CN(C)C(=O)[C@@H](Cc1ccccc1)N(C)C	i	0	-1	0.0
CCCNC(=O)N(C)C[C@H]1Oc2ncc(-c3ccc(OC)cc3)cc2C(=O)N([C@H](C)CO)C[C@H]1C	i	2	9	-3.6
COC(=O)C1=C(C)N(Cc2ccccc2C(F)(F)F)C(=NCc2ccc3c(c2)OCO3)NC1c1cccc(C(F)(F)F)c1 (stereo not drawn)	i	-22	-37	32

(listing goes on)
smiles	FGF22 binding	Ecoli rRNA inh	Ecoli rRNA inh OD600	Ecoli rRNA inh RFP
Cc1ccc(S(=O)(=O)N(C)C[C@H]2Oc3c(NS(=O)(=O)c4ccc(Cl)cc4)cccc3C(=O)N([C@@H](C)CO)C[C@@H]2C)cc1	i	-6	-1	-0.8
C[C@H](CO)N1C[C@H](C)[C@@H](CN(C)Cc2ccc(Cl)c(Cl)c2)Oc2c(NC(=O)c3nc4ccccc4s3)cccc2C1=O	i	7	6	-0.6
COc1ccc(NC(=O)Nc2ccc3c(c2)OC[C@@H](C)NC[C@H](C)[C@@H](OC)CN(C)C3=O)cc1	i	-2	-6	-1.3
C[C@@H]1CN([C@H](C)CO)C(=O)c2cc(NC(=O)CCN3CCOCC3)ccc2O[C@@H]1CN(C)CC1CC1	i	2	20	-3.5
COc1cccc(NC(=O)N[C@H]2C=C[C@H](CC(=O)N3CCCCC3)O[C@H]2CO)c1	i	-1	3	1.8
CN(C[C@H]1N[C@H](CO)[C@H]1c1ccc(-c2cccc(F)c2)cc1)S(C)(=O)=O	i	-1	-6	0.4
C[C@H](CO)N1C[C@H](C)[C@@H](CN(C)C(=O)c2ccc3c(c2)OCO3)Oc2ncc(C3=CCCC3)cc2C1=O	i	-4	-3	-1.2
N#Cc1cccc(-c2ccc3c(c2)[C@@H]2[C@@H](CCN2S(=O)(=O)c2ccc(F)cc2)[C@H](CO)N3)c1	i	-31	-44	-6.2
O=C(C[C@@H]1CC[C@@H]2[C@H](COC[C@H](O)CN2C(=O)Nc2ccc(Cl)c(Cl)c2)O1)NC1CCC1	i	-57	-77	-17
CN(C)C(=O)c1ccc(-c2ccc([C@@H]3[C@@H](CO)N4CCCCN(S(C)(=O)=O)C[C@@H]34)cc2)cc1	i	3	6	2.2
Cc1ccc(S(=O)(=O)Nc2cccc3c2O[C@@H](CN(C)CC2CCCCC2)[C@H](C)CN([C@@H](C)CO)C3=O)cc1	i	0	5	0.6
COc1cccc(-c2ccc3n(c2=O)C[C@@H]2[C@@H](CO)[C@H](C(=O)N(C)C)N(CC4CC4)[C@H]32)c1	i	2	11	-1.9

Other structures follow:
smiles	FGF22 binding	Ecoli rRNA inh	Ecoli rRNA inh OD600	Ecoli rRNA inh RFP
O=C(Cc1ccccn1)N[C@@H]1CC[C@@H](CCNC(=O)c2cc(Cl)cc(Cl)c2)O[C@@H]1CO	i	-3	-2	1.7
COc1ccc2c3c(n(C)c2c1)[C@H](CO)N(C(=O)c1ccccn1)CC31CN(C(=O)c2ccccn2)C1	i	-2	-1	-1.2
CO[C@@H]1CN(C)C(=O)c2cc(NC(=O)Nc3c(C)noc3C)ccc2OC[C@H](C)N(CC2CC2)C[C@@H]1C	i	-1	-9	0.7
C[C@H](NC(=O)C[C@@H]1CC[C@H]2[C@@H](COc3ccc(NC(=O)C4CCOCC4)cc3C(=O)N2C)O1)c1ccccc1	i	0	-4	0.0
C[C@@H]1CCCCO[C@H](CN(C)C(=O)Nc2ccc3c(c2)OCO3)[C@@H](C)CN([C@@H](C)CO)C(=O)c2cc(NC(=O)c3ccccc3)ccc2O1	i	-1	4	-1.8
C[C@@H]1CCCCO[C@H](CN(C)CC2CCCCC2)[C@H](C)CN([C@@H](C)CO)C(=O)c2cc(NS(=O)(=O)c3ccc(F)cc3)ccc2O1	i	-12	-40	19
C[C@@H]1CCCCO[C@@H](CN(C)Cc2ccc(C(=O)O)cc2)[C@H](C)CN([C@@H](C)CO)C(=O)c2cc(NS(=O)(=O)c3ccc(Cl)cc3)ccc2O1	i	2	14	-0.3
CO[C@@H]1CN(C)C(=O)c2ccc(NC(=O)Nc3ccc4c(c3)OCO4)cc2OC[C@H](C)NC[C@H]1C	i	8	4	0.9
CNC(=O)C[C@H]1CC[C@@H]2[C@@H](COc3ccc(NC(=O)c4ccc(C(F)(F)F)cc4)cc3C(=O)N2C)O1	i	-2	-1	-0.4
C[C@@H]1CN([C@@H](C)CO)C(=O)c2cc(NC(=O)Nc3ccc(C(F)(F)F)cc3)ccc2O[C@@H](C)CCCCO[C@H]1CN(C)C(=O)CCCN(C)C	i	1	-29	31
CC(C)C#Cc1ccc2c(c1)O[C@@H](CN(C)S(C)(=O)=O)[C@@H](C)CN([C@@H](C)CO)S2(=O)=O	i	-2	3	0.6
C[C@@H]1CN([C@@H](C)CO)C(=O)Cc2cc(NS(=O)(=O)c3ccc(Cl)cc3)ccc2O[C@H]1CN(C)C(=O)Nc1ccccc1	i	5	9	4.2

New compounds follow.
smiles	FGF22 binding	Ecoli rRNA inh	Ecoli rRNA inh OD600	Ecoli rRNA inh RFP
CCC(=O)Nc1ccc2c(c1)OC[C@@H](C)N(Cc1ccncc1)C[C@@H](C)[C@@H](OC)CN(C)C2=O	i	-1	4	-2.0
C[C@H]1CCCCO[C@H](CN(C)Cc2ccc(Cl)c(Cl)c2)[C@@H](C)CN([C@@H](C)CO)C(=O)c2cc(NS(=O)(=O)c3ccc(F)cc3)ccc2O1	i	-5	-12	5.9
C[C@H]1CN([C@@H](C)CO)C(=O)c2cccc(NS(C)(=O)=O)c2O[C@H]1CN(C)S(=O)(=O)c1cccs1	i	1	7	1.4
CCCC#Cc1ccc([C@H]2[C@H]3CN(C(=O)c4ccc5c(c4)OCO5)CCCCN3[C@H]2CO)cc1	i	-35	-62	5.0
C[C@@H]1CN([C@H](C)CO)C(=O)c2cc(NC(=O)Nc3ccccc3)ccc2O[C@@H](C)CCCCO[C@H]1CN(C)Cc1ccc(C(F)(F)F)cc1	i	5	-8	2.4
N#C[C@H]1[C@@H](c2ccc(C#CCC3CCCC3)cc2)[C@H](CO)N1C(=O)c1ccccn1	i	-6	-22	20
C[C@H]1CN([C@@H](C)CO)C(=O)c2cc(NS(=O)(=O)c3cccs3)ccc2O[C@@H]1CN(C)Cc1ccc(Oc2ccccc2)cc1	i	1	-14	5.4
CC(C)NC(=O)Nc1ccc2c(c1)C(=O)N([C@H](C)CO)C[C@H](C)[C@@H](CN(C)Cc1ccc3c(c1)OCO3)O2	i	2	6	1.3
COc1ccc(C#Cc2ccc3c(c2)O[C@@H](CN(C)C)[C@@H](C)CN([C@H](C)CO)S3(=O)=O)cc1	i	1	-6	6.0
C[C@H](CO)N1C[C@H](C)[C@H](CN(C)C(=O)C2CCOCC2)Oc2ncc(-c3cccc(C#N)c3)cc2C1=O	i	0	1	0.5
O=S(=O)(c1ccccc1)N1CC2(C1)[C@H](c1ccccc1)[C@H](CO)N2CC1CC1	i	-6	-7	0.0
C[C@H](CO)N1C[C@H](C)[C@@H](CN(C)CC2CC2)Oc2ccc(NC(=O)CCCCCC(=O)Nc3ccccc3N)cc2CC1=O	i	6	17	4.4
CCCN(C)C[C@@H]1OCCCC[C@H](C)Oc2ccc(NS(C)(=O)=O)cc2C(=O)N([C@@H](C)CO)C[C@H]1C	i	-1	7	-2.5
C[C@H](CO)N1C[C@H](C)[C@@H](CN(C)Cc2ccc(C(F)(F)F)cc2)Oc2ccc(NC(=O)Nc3ccc4c(c3)OCO4)cc2C1=O	i	0	-13	2.6
COc1cccc(-c2ccc3c(c2)[C@@H]2[C@@H](CCN2S(=O)(=O)C2=NC(C)C=N2)[C@H](CO)N3C)c1 (stereo partly drawn)	i	2	-19	1.9

In another format: 5 of the compounds above
Below each compound – FGF22 binding | Ecoli rRNA inh | Ecoli rRNA inh OD600 | Ecoli rRNA inh RFP
CC(C)NC(=O)Nc1ccc2c(c1)C(=O)N([C@H](C)CO)C[C@H](C)[C@@H](CN(C)Cc1ccc3c(c1)OCO3)O2
→ i | 2 | 6 | 1.3
COc1ccc(C#Cc2ccc3c(c2)O[C@@H](CN(C)C)[C@@H](C)CN([C@H](C)CO)S3(=O)=O)cc1
→ i | 1 | -6 | 6.0
C[C@H](CO)N1C[C@H](C)[C@H](CN(C)C(=O)C2CCOCC2)Oc2ncc(-c3cccc(C#N)c3)cc2C1=O
→ i | 0 | 1 | 0.5
O=S(=O)(c1ccccc1)N1CC2(C1)[C@H](c1ccccc1)[C@H](CO)N2CC1CC1
→ i | -6 | -7 | 0.0
C[C@H](CO)N1C[C@H](C)[C@@H](CN(C)CC2CC2)Oc2ccc(NC(=O)CCCCCC(=O)Nc3ccccc3N)cc2CC1=O
→ i | 6 | 17 | 4.4
